# MLL AF4-AF9 inh – blocks AF4 peptide binding to human AF9 | AlphaScreen, biotin-AF4 peptide binding to FLAG-AF9 | inhibition, % at 10 µM | P42568 | 0.47% of 350,000 active;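 active = every replicate reaching a set inhibition limit, whatever the replicate mean, cut at about 25% in these data; inconclusive = mean inhibition reaches that limit but some replicates miss it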;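 note: 0% = plate neutral control median and 100% = total signal loss; the record names both 10 and 1 µM as test concentration; the first replicate is given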
# Target sequence (P42568 whole entry, looked up): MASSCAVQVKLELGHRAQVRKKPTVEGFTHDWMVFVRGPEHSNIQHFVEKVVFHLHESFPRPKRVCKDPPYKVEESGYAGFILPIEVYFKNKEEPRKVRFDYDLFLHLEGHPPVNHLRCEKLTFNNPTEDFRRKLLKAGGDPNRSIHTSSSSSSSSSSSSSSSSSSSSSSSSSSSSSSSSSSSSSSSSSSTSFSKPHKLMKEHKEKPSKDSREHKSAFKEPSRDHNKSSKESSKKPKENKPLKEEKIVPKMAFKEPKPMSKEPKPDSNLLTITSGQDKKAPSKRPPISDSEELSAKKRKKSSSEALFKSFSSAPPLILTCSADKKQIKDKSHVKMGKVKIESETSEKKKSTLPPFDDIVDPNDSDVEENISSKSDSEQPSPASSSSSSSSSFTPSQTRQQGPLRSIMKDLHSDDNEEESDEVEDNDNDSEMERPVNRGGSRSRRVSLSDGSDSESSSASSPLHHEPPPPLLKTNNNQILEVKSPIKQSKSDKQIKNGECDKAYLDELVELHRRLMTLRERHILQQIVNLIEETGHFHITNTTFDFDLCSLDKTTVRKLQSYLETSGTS
# FGF22 binding – shifts melting point of recombinant human FGF22; recombinant FGF22 thermal shift, SYPRO orange fluorescence; percent of sucrose octasulfate shift, DMSO zero; AID 651658; Q9HCT0; 1.5% of 340,000 active; calls only at 9.99 µM;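 active = melting point raised past a set limit in the mean and every replicate; inconclusive = no clear call; three in four hits are not shown here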
# Target sequence (Q9HCT0 whole entry, looked up): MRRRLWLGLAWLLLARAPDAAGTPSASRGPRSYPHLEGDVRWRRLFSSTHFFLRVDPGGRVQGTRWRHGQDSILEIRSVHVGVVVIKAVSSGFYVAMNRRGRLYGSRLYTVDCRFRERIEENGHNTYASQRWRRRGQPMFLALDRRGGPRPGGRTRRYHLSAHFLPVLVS
# Bfl-1 A1 inh – inhibitors of the anti-apoptotic protein A1, read as caspase activation; MEF A1-2A-BIM cells, Caspase-Glo 3/7 luminescence, 3 h; percent of clofoctol response, vehicle zero; caspase activation, % (concentration not given with the values); 0.066% of 330,000 active;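 active = over half of replicate activation scores above 10%, or exactly half above 10 with the replicate mean above 10; inconclusive = replicate mean below 10 yet half the replicates above 10; inactive = over half of replicates below 10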;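 note: wells of about 30 µL received 50 nL stock; many hits fall short of the cut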
# rRNA inh HTS – inhibitors of bacterial rRNA selective over humanized ribosomes; E. coli WT GFP vs humanized-ribosome RFP mutants, fluorescence, 24 h; active compounds read low; DMSO median 0, no signal -100; GFP signal change (wild-type ribosome), % (test concentration not listed); 1.6% of 350,000 active;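 active = significant combined selectivity score with lowered wild-type GFP, culture density cut under 30%, mutant RFP and density less affected; inactive = any of these conditions unmet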; note: one replicate is shown; some compounds called inactive have numbers as strong as hits
# T cruzi repl – T. cruzi replication inhibition. T. cruzi beta-gal in NIH3T3, luminescence, 90 h. inhibition, % (no concentration beside the values). 1.4% of 300,000 active. AID 1885;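 active = mean inhibition across valid replicates above about 55%, limit read from the data; inconclusive = mean below that limit but half or more replicates reach it; inactive = mean below it, under half of replicates reach it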;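 note: signal also drops with host cell toxicity which is not excluded here; 0% = plate median of DMSO wells and 100% = zero luminescence signal; higher percent means less beta-gal luminescence so fewer parasites; stock transfer was 50 nL into about 50 µL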
# Beta cell apopt – blocks beta cell apoptosis. INS-1E cytokine-induced death, ATP luminescence, 48 h; percent of positive-control rescue, neutral wells zero. protection from apoptosis, % (concentration not given with the values). 0.8% of 300,000 active. AID 435005;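 active = all replicates at 75% or more, or half of them and the mean; inconclusive = half reach 75% but not the mean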;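 note: 0% = cytokine-treated negative control wells and 100% = positive control rescue; higher means more ATP so stronger rescue from cytokine killing; wells of about 40 µL received 100 nL stock; the first replicate is given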
# E coli growth – blocks Escherichia coli growth | OD600, 23 h; active compounds read low | AID 1053175 | 0.21% of 330,000 active | OD600 absorbance (concentration not given with the values);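 active = OD600 absorbance below the run mean of sample wells minus 3.6 SD, in any replicate, cut at about 0.56 in these data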;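 note: stock transfer was 300 nL into about 60 µL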
# UCH37 inh – blocks the human deubiquitinase UCH37; inhibition, % (test concentration not listed); Q9Y5K5; AID 588478; 0.33% of 330,000 active; purified proteasome/UCH37, Ub-AMC cleavage fluorescence;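 active = mean of two replicates above 20%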;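 note: 0% = compound-free wells with enzyme and 100% = wells lacking proteasome; stock transfer was 100 nL into about 20 µL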
# Target sequence (Q9Y5K5 whole entry, looked up): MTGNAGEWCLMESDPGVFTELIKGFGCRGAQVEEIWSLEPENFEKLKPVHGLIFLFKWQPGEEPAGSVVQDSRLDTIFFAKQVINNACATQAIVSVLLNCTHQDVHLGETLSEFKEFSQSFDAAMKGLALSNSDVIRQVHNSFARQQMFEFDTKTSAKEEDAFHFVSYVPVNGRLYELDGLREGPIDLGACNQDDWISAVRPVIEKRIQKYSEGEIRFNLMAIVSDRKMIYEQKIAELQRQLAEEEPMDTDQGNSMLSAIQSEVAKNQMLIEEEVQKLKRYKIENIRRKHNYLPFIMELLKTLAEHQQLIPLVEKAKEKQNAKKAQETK
#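 Material: Human UCH37 enzyme supplied as purified proteasome complex | Schedule: 30 min preincubation with enzyme, 25 min cleavage at room temperature | Detection: AMC fluorescence 355/460 nm | Measure: % inhibition of Ub-AMC cleavage fluorescence | Controls: Wells without proteasome as full block, compound-free enzyme plus substrate as uninhibited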
# rRNA inh HTS OD600 – second read-out of rRNA inh HTS, no call of its own (marks repeat the call); OD600 change, %; measured here: OD600 growth;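 optical density of the mix in the first replicate; 0 = DMSO median and -100 = no signal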
# rRNA inh HTS RFP – second read-out of rRNA inh HTS, no call of its own (marks repeat the call); RFP signal change, %; measured here: RFP humanized mutant strains;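 first replicate; 0 = DMSO median and -100 = no signal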
# Starred values were filed as active, the others as inactive; i = inactive; ? = inconclusive; · = not tested or not shown; + = active, no number.
cpd	Structure	MLL AF4-AF9 inh	FGF22 binding	Bfl-1 A1 inh	rRNA inh HTS	rRNA inh HTS OD600	rRNA inh HTS RFP	T cruzi repl	Beta cell apopt	E coli growth	UCH37 inh
1	Cc1cc(C)cc(NC(=O)NCc2nnc(SCc3ccccc3)n2C)c1	·	·	-0.5	·	·	·	-9	-5	0.73	-2.3
2	COCCCN1C(=O)C(=O)/C(=C(/O)c2ccc(S(=O)(=O)N3CCOCC3)cc2)C1c1ccc(OC)cc1 (centres undefined)	-3.0	i	0.1	5	4	-4.2	0	2	0.68	14
3	Cc1[nH][nH]c(=O)c1C(c1ccc(-c2ccc(Cl)c(C(=O)O)c2)o1)c1c(C)[nH][nH]c1=O	-5.9	·	·	18	15	0.0	·	·	0.68	30*
4	Oc1ccc(C[C@H]2CNC(=S)N2CCc2cc(C(F)(F)F)cc(C(F)(F)F)c2)cc1	-4.5	i	-1.6	-6	-22	1.0	6	-3	·	2.4
5	CC(=O)Nc1cccc(C(=O)Nc2nc(C)cs2)c1	3.0	i	-1.6	7	5	-1.1	-5	-11	0.68	4.8
6	CCN1CCC(n2nccc2NC(=O)c2ccccc2Cl)CC1	1.6	i	0.6	7	7	-0.1	2	1	0.68	4.8
7	CN(CC(=O)Nc1cccc(F)c1)C(=O)CCN1C(=O)C2CC=CCC2C1=O (centres undefined)	0.1	i	-0.4	·	·	·	·	0	0.66	1.0
8	O=C(Cn1nc(C(F)(F)F)c2c1CCCC2)NCCN1CCOCC1	·	·	-0.4	·	·	·	-5	-6	0.69	1.1
9	O=C(NC1CCC(CC2CCC(NC(=O)C(Cl)Cl)CC2)CC1)C(Cl)Cl (centres undefined)	3.9	i	0.1	-3	8	0.7	-3	-14	0.7	4.4
10	COc1ccccc1CCNC(=O)c1c(C)nn(CC(C)C)c1Cl	-3.5	i	-1.3	-10	-14	4.7	-1	·	0.69	-0.2
11	Cc1cccc(NC(=S)NC(=O)/C=C/c2ccco2)n1	·	·	0.2	·	·	·	-6	·	0.71	7.7
12	N#CCc1nn2c(-c3ccccc3)ccnc2c1C#N	-3.4	i	1.5	5	4	2.7	11	4	0.65	-300
13	CCCCCCCCOC(=O)c1ccc(N)cc1	·	·	-0.4	·	·	·	8	6	0.69	3.5
14	CC(C)(C)n1nc2c(c1NC(=O)Cc1cccc3ccccc13)CS(=O)(=O)C2	-5.3	i	-0.4	12	-3	3.4	-23	-8	0.7	6.8
15	CC(=O)Nc1ccc(S(=O)(=O)NCCc2cn3nc(C)c(C)nc3n2)cc1	-2.5	i	0.6	2	11	1.8	-2	-3	0.72	-418
16	CCOC(=O)c1c(N)sc2c1CCC1C(=O)N(C3CCCCC3)C(=O)C21 (centres undefined)	·	·	-0.6	·	·	·	6	5	0.77	-7.6
17	CCOC(=O)C1CCCN(CCC(=O)Nc2cccc(C)c2)C1 (centres undefined)	0.0	i	0.1	6	3	-1.4	27	1	0.67	3.8
18	COc1ccccc1C(=O)N=Nc1c(O)[nH]c2ccc([N+](=O)[O-])cc12	0.4	·	·	-1	13	-2.6	·	·	0.73	-0.8
19	CC1CCN(C(=O)c2ccc(NS(=O)(=O)c3ccccc3)cc2)CC1	-1.4	i	0.6	2	-6	1.0	2	1	0.7	4.8
20	C=CCn1c(SCC(=O)c2ccccc2)nnc1-c1cc2ccccc2o1	·	·	-0.1	·	·	·	11	-3	0.77	2.6
21	Cn1nc(C(=O)Nc2cccc(S(=O)(=O)N3CCOCC3)c2)c2ccccc2c1=O	1.9	i	1.1	8	14	3.3	·	-10	0.68	0.0
22	Cc1nnc2c(NC3CCCC3)nc3ccccc3n12	-0.8	i	0.3	-9	-11	-5.8	-2	3	0.67	4.3
23	COc1ccccc1C(=O)NCC(=O)NC1CCCc2ccccc21 (centres undefined)	-1.3	·	0.2	9	10	4.4	-8	-5	0.7	0.8
24	Cc1cc(C)c(NC(=O)CN)c(C)c1	-2.5	i	0.1	1	7	-1.3	-13	3	0.69	3.5
25	Cc1ccc2cc3cc(C(=O)N4CCN(Cc5ccccc5)CC4)sc3nc2c1	·	·	0.7	·	·	·	13	-1	0.71	1.7
26	COc1ccc(OCC(O)CNCCOc2ccccc2OC)c(C(C)(C)C)c1 (centres undefined)	?	i	0.8	-57	-79	-20	35	26	0.63	2.3
27	COc1ccc(NC(=O)CCC(=O)Nc2cc(OC)c(NC(=O)c3cccs3)cc2OC)cc1	-8.4	i	1.4	6	10	-2.7	-9	-4	0.68	-5.1
28	O=Cc1ccc(Oc2ncccn2)cc1	-2.0	i	0.6	10	3	0.1	-12	-9	0.72	4.8
29	CC1CCC2C(=O)N(c3ccc(S(=O)(=O)c4ccccc4)cc3)C(=O)C2C1 (centres undefined)	·	·	-0.5	·	·	·	-11	3	0.68	0.4
30	CC(C)(C)S(=O)(=O)/C(C#N)=N/Nc1ccc(Cl)cc1	1.4	+	-0.9	-51	-73	-13	-37	48	·	·
31	COc1cccc(O)c1CN1CCCC(C(=O)c2cccc(C(F)(F)F)c2)C1 (centres undefined)	3.9	i	0.6	-41	-68	-2.2	27	6	0.66	1.2
32	Cc1cc(NC(=O)c2cccs2)n(-c2nc3ccccc3[nH]2)n1	-0.8	i	-0.6	5	20	-0.7	58*	50	0.7	-5.4
33	CC1CN(C(=S)SCC(=O)c2ccc([N+](=O)[O-])cc2)CC(C)O1 (centres undefined)	4.0	i	-0.3	7	7	-0.1	12	·	0.67	4.0
34	CCOC(=O)c1ccc(S(=O)(=O)Nc2cc(S(=O)(=O)N3CCOCC3)ccc2O)cc1	2.2	i	-1.1	5	3	0.7	·	-6	0.66	3.4
35	COc1cc(NC(=O)CNC(=O)Cn2ccc3ccccc3c2=O)cc(OC)c1OC	-2.7	i	0.1	2	10	1.5	4	-4	0.71	1.0
36	O=C(COC(=O)COc1cccc(C(F)(F)F)c1)Nc1ccc(N2CCOCC2)cc1	-6.4	i	-0.9	11	8	2.0	·	0	0.66	1.1
37	COc1cc(/C=C/C(=O)OCN2C(=O)c3ccccc3C2=O)ccc1OC(F)F	2.3	i	0.2	2	5	-3.3	-3	-7	0.71	2.1
38	CCOC(=O)C(CCOc1cccc(CC)c1)C(=O)OCC	·	·	1.3	·	·	·	9	-3	0.68	1.7
39	COc1ccc(/C=N/NC(=O)c2ccc(OC)c(OC)c2)cc1COc1c(F)c(F)c(F)c(F)c1F	-7.4	i	0.9	-6	2	4.6	·	2	·	·
40	CSc1nc(SCC(=O)O)c2sc3nc(-c4ccccc4)c4c(c3c2n1)CCC4	-19	i	·	·	·	·	30	·	0.69	7.2
41	Cc1oc(C)c(C(=O)O)c1C(=O)O	-5.4	i	0.1	4	4	-4.9	1	-5	0.69	3.2
42	CS(=O)(=O)N(CC(=O)N1CCCCC1)C1CCCCC1	·	·	-0.5	·	·	·	-6	-10	0.67	1.8
43	O=C(CCCSc1nc2ccccc2c(=O)[nH]1)c1ccccc1	-0.1	i	0.3	23	21	-1.7	9	5	0.67	3.3
44	Cc1ccc2nc(SCC(=O)N/N=C/c3ccco3)cc(C)c2c1	0.7	i	0.5	-3	-9	3.2	-3	1	·	·
45	O=C(NNC(=O)C1C2C=CC(C2)C1C(=O)O)c1cc(Cl)ccc1O (centres undefined)	-4.2	i	-0.1	24	12	1.8	·	1	0.71	-391
46	O=S(=O)(NN1CCOCC1)c1ccc(Cl)s1	0.3	i	0.2	10	4	-1.0	-6	0	0.65	5.6
47	CCC1([N+](=O)[O-])COC(C=Cc2ccccc2)OC1 (centres undefined)	2.5	i	·	4	-1	1.6	·	·	0.65	0.2
48	O=C(CN1C(=O)C2CCCCC2C1=O)Nc1cc([N+](=O)[O-])ccc1F (centres undefined)	-0.2	i	1.4	1	8	-2.8	·	1	0.65	5.0
49	COc1cccc(N2CCN(S(=O)(=O)c3ccc4c(c3)oc(=O)n4C)CC2)c1	-2.1	i	-0.4	3	4	1.1	-9	1	0.68	4.8
50	OC(CN1CCN(C(c2ccccc2)c2ccccc2)CC1)c1ccccc1 (centres undefined)	·	·	0.9	·	·	·	1	2	0.64	4.6

# (continued)
cpd	Structure	MLL AF4-AF9 inh	FGF22 binding	Bfl-1 A1 inh	rRNA inh HTS	rRNA inh HTS OD600	rRNA inh HTS RFP	T cruzi repl	Beta cell apopt	E coli growth	UCH37 inh
51	CCCOc1ccc(NC(=O)CC2C(=O)Nc3ccccc3N2CC(=O)N2CCCC2)cc1 (centres undefined)	-2.1	i	-0.4	-10	0	1.7	·	-5	0.67	-6.1
52	Cc1nc(SC2CC(=O)N(c3ccccc3)C2=O)n[nH]1 (centres undefined)	2.8	i	-0.3	0	1	-1.8	-6	-1	0.64	1.9
53	OC1(c2cccc(C(F)(F)F)c2)CCN(Cc2nnnn2CCc2ccccc2)CC1	·	·	-1.0	·	·	·	18	-6	0.79	1.7
54	Cc1cc(C)cc(N(CC(=O)O)S(=O)(=O)c2c(C)[nH]c(=O)[nH]c2=O)c1	-0.4	i	-0.4	-2	7	-0.3	3	4	0.68	1.5
55	O=C(CN1CCN(c2cccc(Cl)n2)CC1)N1CC(O)CO1 (centres undefined)	-7.0	i	-1.5	2	-1	-1.2	4	1	0.72	1.9
56	O=C(NCCc1csc(-c2ccccc2)n1)c1c(F)cccc1Cl	1.6	i	0.7	-16	-16	0.5	6	-3	0.7	4.3
57	CCOC(=O)CSc1nc(C)c2cc(C)c(C)cc2n1	-4.3	·	-0.6	·	·	·	-3	-12	0.65	3.8
58	OCC1(CO)COC2(CCCC2)N1	·	·	-0.6	·	·	·	-9	-5	0.64	-3.8
59	Nc1sc2c(c1C(=O)c1ccccc1)CCCC2	·	·	-0.6	·	·	·	2	-6	0.7	4.4
60	C[C@@H]1CC[C@]2(O[C@H](CCO)C[C@@H](O)[C@@H]2O)O1	0.6	i	0.2	7	18	8.5	-6	1	·	3.7
61	O=C(Oc1c(Cl)cc(Cl)c2ccccc12)N1CCCC1	·	·	0.2	-56	-77	-13	3	27	0.66	4.1
62	O=C(NCCc1cccc(F)c1)[C@@H]1CSC2c3ccccc3C(=O)N21 (some centres undefined)	-9.8	·	0.0	·	·	·	2	-1	0.73	1.0
63	CCCc1nc2c(=O)n(C)c(=O)[nH]c2n1CCC	·	·	0.0	·	·	·	-13	-7	0.72	2.6
64	O=C(NCCNc1ccc([N+](=O)[O-])cc1)c1cccc(Br)c1	1.3	i	-0.2	5	12	3.9	-15	2	0.68	-2.1
65	O=C(Nc1nccs1)C1C2/C=C\CCCCC21 (centres undefined)	·	·	0.7	·	·	·	6	-6	0.73	2.6
66	COc1ccc(C(=O)Nn2c(C)nnc2-n2nc(C)cc2C)cc1OC	·	·	1.7	·	·	·	-16	·	0.75	2.2
67	O=C(Nc1ccc(S(=O)(=O)N2CCCCC2)cc1)C1CCCO1 (centres undefined)	0.3	i	-0.1	0	5	5.1	-12	0	0.68	4.1
68	CCC(=O)Nc1ccc2c(c1)ncn2-c1ccc(OC)cc1	·	·	0.4	·	·	·	1	0	0.69	-0.3

# Not all compounds are listed; count on the stated rates, not on these rows.
